# Sa ugtP lethal: growth inhibition of ugtP-null S. aureus, primary screen, RN4220 ugtP deletion, OD600; 330,000 tested, 0.54% active; growth inhibition, % (no concentration beside the values); AID 1259309, 2017; 16 h; some inactives read as strong as hits;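 active means z-score under -3 and OD600 up to 0.15 on both plates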;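 further: plate controls were untreated wells for no effect and antibiotic for full effect; wells of about 80 µL received 100 nL stock; the first replicate is given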
# RN4220 kill: growth inhibition of S. aureus RN4220, primary screen, OD600 | inhibition, % (concentration not given with the values) | AID 1259311, 2017 | 330,000 tested, 0.33% active | 16 h;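 active means z-score of -3 or lower and OD600 up to 0.18 on both plates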;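 further: plate controls were untreated cells for no effect and reference antibiotic for full effect; stock transfer was 100 nL into about 80 µL; one replicate is shown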
# PrP UTR inh: inhibition of PrP 5' UTR reporter expression. cell-based PrP 5' UTR mRNA reporter, plate reader. inhibition, % (concentration not given with the values). 340,000 tested, 0.35% active. AID 488862, 2010;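 active means every replicate at 50% or more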;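 further: 0 = median of the neutral control wells; tested in H4 reporter cells; numbers are from one replicate; inactives centre near -14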
# Bead autofluor: flagged as autofluorescent in microsphere protease counterscreen | compound autofluorescence counterscreen, microsphere flow cytometry; stronger effect = higher value | fluorescence intensity (test concentration not listed) | 360,000 tested, 3.1% active;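 active means at least 3 SD above the mean of all compounds, about 16000 in these data; inconclusive means too few beads counted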;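 further: 100 nL of 1 mM stock went into each well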
# Mtb hypoxia inh: PubChem AID 1159583; M. tuberculosis hypoxia-regulated fluorescent reporter, fluorescence; 300,000 tested, 0.1% active; fluorescence inhibition, % (concentration not given with the values);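 active means 35 to 45% if threefold the growth effect, above 45% if 1.5-fold the growth effect; inactive means the rest, general growth blockers included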;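 further: wells of about 50 µL received 100 nL stock; 0% = vehicle wells and 100% = reference inhibitor wells; whole bacteria with a GFP reporter of the hypoxia response; strong numbers were not always called active; many hits fall short of the cut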
# BJeLR lethal: MLPCN primary cell-based screen for lethality selective to Ras in HRASV12 cells. BJeLR (HRASV12) viability, CellTiter-Glo ATP luminescence, 48 h; reference of the scale not given here. inhibition, % (no concentration beside the values). 300,000 tested, 0.17% active. AID 1554, 2009;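 active means replicate mean above 50%; inconclusive means above 50% but judged a plate artefact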;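 further: 50 nL library stock added to about 25 µL; numbers are from one replicate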
# Mtb hypoxia inh growth: further read-out of Mtb hypoxia inh, marked with its call; growth inhibition, %; measured here: M. tuberculosis growth (absorbance);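 0% = vehicle and 100% = reference antibiotic; read after six days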
# An asterisk follows results filed as active; ? = inconclusive; nt = no result given.
SMILES,Sa ugtP lethal,RN4220 kill,PrP UTR inh,Bead autofluor,Mtb hypoxia inh,Mtb hypoxia inh growth,BJeLR lethal
CCCCNC(=S)Nc1ccc(Cl)cc1,-3,0.8,-27,5079,16,17,4
Cc1cc(C)nc(SCc2nc3ncccn3c2Br)n1,-5,2.2,3,2655,nt,nt,0
COc1ccc(C)cc1S(=O)(=O)N(C)CC(=O)NC1CC1,10,2.9,-18,8180,8,-3,0
Cc1ccc(NC(=O)CCC(=O)NNC(=O)c2cccs2)c(C)c1,7,3.5,-18,11333,4,1,-15
COc1ccc(C(=O)O/N=C(/c2cccs2)C(C)(C)C)cc1,nt,nt,-15,3318,nt,nt,-4
CCCCOc1ccc(CN=C(N)N)cc1Cl,100*,4.7,-1,6087,7,0,4
Cc1cc(N2C(=O)C(O)=C(C(=O)c3ccco3)C2c2cccc(Cl)c2)no1 (stereo not given),92*,96*,-36,nt,-8,-8,-7
CCOCCCNC(=O)C(NC(=O)Cc1cccs1)c1ccc(C)cc1 (stereo not given),3,11,-17,3585,16,2,7
CCOc1ccc(-n2nc3c(=S)[nH]nc(C)c3c2C)cc1,8,7.4,-5,2437,12,-2,6
O=S(=O)(c1ccc2ccccc2c1)N1CCOCC1,8,-1.0,-21,3714,2,0,3
Cc1cccc(NC(=O)CCCN=C2NS(=O)(=O)c3ccccc32)c1C,-1,-4.0,-5,6407,-3,2,nt
Cc1cc(-c2csc(NC(=O)C3=COCCO3)n2)c(C)n1C,nt,nt,-25,4218,nt,nt,7
Cc1ccc(N(C(=O)C2COc3ccccc3O2)C(C(=O)NC2CCCCC2)c2cn(C)nc2C)cc1 (stereo not given),-3,11,nt,nt,10,4,-5
Cc1cc(C)n2nc(C(=O)Nc3cccc(S(=O)(=O)N(C)c4ccccc4)c3)nc2n1,24,7.5,-16,4393,8,8,1
OC(CN1C2=NCCCN2c2ccccc21)c1ccc2c(c1)OCO2 (stereo not given),7,-0.6,-17,2438,13,4,14
CCOC(=O)c1[nH]c(C)c(C(=O)OCC(=O)NC(=O)NC(C)(C)C)c1C,0,9.7,-34,20160*,3,3,-2
CC(O)c1nc(C(C)O)n(CC(=O)c2ccccc2)n1 (stereo not given),2,7.3,12,3663,13,-3,-3
CCNC(=O)CSc1nc2ccccc2c(=O)n1-c1cccc(OC)c1,2,0.6,-5,3367,-3,2,2
CC(C)(C)c1ccc(S(=O)(=O)NCC(=O)N2CCN(C(=O)c3ccco3)CC2)cc1,-1,6.5,nt,9996,7,8,-6
Cc1ccc(NS(=O)(=O)c2ccc3c(c2)NC(=O)C(C)C(=O)N3)cc1C (stereo not given),-3,-12,-8,5011,-6,5,-2
O=C(CN1CCN(c2ccc(Cl)cc2)CC1)Nc1ccc(F)c(F)c1,-12,0.3,-15,3493,nt,nt,1
Cc1ccc(NC(=O)CN(C)C(=O)c2ccccc2Cc2ccccc2)cc1,0,0.7,-6,6013,9,8,nt
CCOc1ccc(NC(=O)c2c(N)n(C)c(=O)[nH]c2=O)cc1,-3,-14,-28,3605,13,5,2
CC(C)CCn1c(SCCN2CCOCC2)nc2c1c(=O)[nH]c(=O)n2C,10,3.9,-18,4876,nt,nt,2
Cc1ccc(OCCn2cnc3c2c(=O)n(C)c(=O)n3C)cc1,1,-2.5,0,2899,-16,-15,8
CC(=NOC(=O)CC(C)C)c1cc(-c2ccc(Cl)cc2)no1,11,2.9,nt,nt,14,9,nt
CCN1CCN(C(=S)c2ccc(SC)cc2)CC1,6,1.0,-18,10320,3,1,-2
COC(=O)[C@H](Cc1ccccc1)NC(=O)NC(C)CCc1ccccc1 (stereo not given in full),4,-1.3,nt,3875,-2,-4,-3
CCCC1=C(C(=O)OCC)C(c2ccccc2OC)NC(=O)N1 (stereo not given),-7,-12,-1,2142,20,13,-9
Cc1ccc(NC(=O)c2cccs2)cc1NC(=O)c1ccco1,-17,-4.8,-15,?,-2,-4,-19

# Part of the list above in order of heavy-atom count, smallest number first:
SMILES,Sa ugtP lethal,RN4220 kill,PrP UTR inh,Bead autofluor,Mtb hypoxia inh,Mtb hypoxia inh growth,BJeLR lethal
Cc1cc(C)nc(SCc2nc3ncccn3c2Br)n1,-5,2.2,3,2655,nt,nt,0
COc1ccc(C(=O)O/N=C(/c2cccs2)C(C)(C)C)cc1,nt,nt,-15,3318,nt,nt,-4
OC(CN1C2=NCCCN2c2ccccc21)c1ccc2c(c1)OCO2 (stereo not given),7,-0.6,-17,2438,13,4,14
Cc1cc(N2C(=O)C(O)=C(C(=O)c3ccco3)C2c2cccc(Cl)c2)no1 (stereo not given),92*,96*,-36,nt,-8,-8,-7
Cc1ccc(NC(=O)CN(C)C(=O)c2ccccc2Cc2ccccc2)cc1,0,0.7,-6,6013,9,8,nt

# New compounds follow
SMILES,Sa ugtP lethal,RN4220 kill,PrP UTR inh,Bead autofluor,Mtb hypoxia inh,Mtb hypoxia inh growth,BJeLR lethal
CCn1nc(C(=O)N2CCc3ccccc32)c2ccccc2c1=O,-1,2.2,-11,3556,-5,2,nt
O=C(c1ccc(F)cc1)C(Cc1ccccc1)N1CCCCC1 (stereo not given),13,6.2,-4,3121,0,1,3
O=C(CN1CCN(c2ccccc2F)CC1)c1ccc2c(c1)OCO2,4,-1.5,-17,3041,nt,nt,nt
O=C(c1ccccn1)N1CCCC(N2CCN(Cc3ccc4c(c3)OCO4)CC2)C1 (stereo not given),8,0.9,-19,nt,9,-20,-12
Brc1ccc(CN2CCN(Cc3c[nH]c4ccccc34)CC2)cc1,-2,-8.4,-20,3894,19,14,-1
COc1cccc(OC)c1C(=O)Nc1c(C)n(C)n(-c2ccccc2)c1=O,9,3.7,-2,10277,-2,-6,14
Cc1ccc(OCC(=O)NC2CC(C)(C)NC(C)(C)C2)cc1C,2,2.7,-14,4568,1,-1,6
CCCc1cc(=O)oc2cc(OC(C)C(=O)NCC3CCC(C(=O)O)CC3)ccc12 (stereo not given),2,2.0,-20,5187,nt,nt,2
CCC1(C)Cc2c(sc3nn[nH]c(=O)c23)CO1 (stereo not given),7,3.6,-15,16707*,5,6,-2
O=C(CCS(=O)(=O)c1ccc(Cl)cc1)N1CCCc2ccccc21,2,1.3,-12,4196,11,0,-4
COc1ncnc(OC)c1S(=O)(=O)NCc1ccccc1,-1,4.9,-7,3876,-2,12,5
O=C(NCCc1c[nH]c2ccccc12)C1CCN(S(=O)(=O)c2ccccc2)CC1,-1,3.9,-10,3781,-2,2,-1
Cc1ccc(-n2c(O)c(/C=N/Nc3ccc(S(=O)(=O)N4CCOCC4)cc3[N+](=O)[O-])c3ccccc3c2=O)c(C)c1,5,2.1,1,1715,8,3,11
O=C(CN1C(=O)/C(=C2/SC(=S)N(CCS(=O)(=O)O)C2=O)c2ccccc21)Nc1cccc(C(F)(F)F)c1,6,7.3,-29,3815,16,7,nt
COc1ccc(C(=O)NC(=S)NCc2cccnc2)cc1Cl,37,3.4,-28,5040,13,9,-4
CSc1ccccc1NC(=O)COc1ccc2c(c1)OCO2,-4,-3.9,-12,4337,-5,-2,nt
COc1ccc(C)cc1-n1nnnc1SCC(=O)Nc1cccnc1Cl,3,2.4,-22,1998,-5,-10,2
CCCOc1ccccc1-c1nc2c([nH]1)c(=O)[nH]c(=O)n2C,5,4.5,3,2923,nt,nt,-4
O=C(O)CC(c1ccc(OC2CCCC2)cc1)N1C(=O)c2ccccc2C1=O (stereo not given),16,4.3,-10,3482,11,-4,-1
O=C(Nc1nnc(C2CC2)s1)c1ccc(Cl)c(S(=O)(=O)N2CCc3ccccc3C2)c1,-1,4.7,-3,2367,5,1,3
N#CCCN(C(=O)COC(=O)CNC(=O)c1cccs1)c1ccc(F)cc1,1,1.2,12,nt,0,2,-1
O=C(Nc1ccccc1C(=O)O)c1cc(S(=O)(=O)Nc2cccc(F)c2)ccc1Cl,12,0.1,-9,4123,2,2,-8
Cc1ccc(S(=O)(=O)c2nc(NC3CCS(=O)(=O)C3)sc2Cl)cc1 (stereo not given),-3,-1.5,-9,5888,nt,nt,-7
CCCCN1C(=O)C(NC(C)=O)c2ccccc21 (stereo not given),-1,6.9,-24,4213,9,8,10
O=C(/C=C/c1ccco1)N(Cc1cccc(Br)c1)C1CCS(=O)(=O)C1 (stereo not given),3,3.7,-12,5615,15,9,-3
CCOP(=O)(O)c1ccccc1OCCOc1ccccc1P(=O)(O)OCC,-2,-2.7,-9,12092,-1,2,-13
CC(C)N(C(=O)CSc1nc2ccccc2n1-c1ccccc1)C(C)C,17,-2.0,nt,10302,-3,2,-2
COC(=O)CN1C(=O)C(C)(C)Oc2ccc(C(=O)NC3CCCC3)cc21,-1,2.8,-12,5849,7,-2,-3
CC(C)Sc1oc(-c2ccco2)nc1S(=O)(=O)c1ccccc1,-1,2.5,-15,7991,0,3,2
COc1ccc(S(=O)(=O)N(Cc2nc3ccccc3c(=O)[nH]2)C2CCCC2)cc1,3,0.2,-9,4504,nt,nt,-6
CCOc1cc(/C=N/Nc2ccc(C(=O)O)cc2)ccc1OC(=O)c1ccccc1C,nt,nt,-28,4731,nt,nt,-3
O=C(CCn1c(=O)oc2ccccc21)Nc1cccc(Br)c1,4,6.2,-6,5397,13,10,-5
COc1ccc(CN(C)Cc2nc(Cc3cccc(F)c3)no2)c2cccnc12,-5,2.1,1,3349,0,6,9
Cc1ccc(Cl)cc1NC(=O)c1cc(S(=O)(=O)N2CCOCC2)cn1C,16,20,49,4359,0,-1,4
COC(=O)C1=C(C)NC(=O)CC1c1cc(Br)ccc1F (stereo not given),-3,-1.2,-6,3801,nt,nt,4
CCOC(=O)c1c(N=CC2=C(O)CC(C)(C)CC2=O)sc(C(C)=O)c1C,7,5.3,nt,nt,4,3,nt
CCN(c1ccccc1)S(=O)(=O)c1csc(C(N)=O)c1,8,7.4,-26,3784,4,3,-2
O=C(Nc1cnc2sc3c(n2c1=O)CCCC3)c1ccc(F)cc1,-7,-10,-52,nt,5,5,-7
COc1ccc(NS(=O)(=O)c2cccc(C(=O)N3CCN(Cc4ccc5c(c4)OCO5)CC3)c2)cc1,2,2.1,-3,?,5,7,5
Cn1c(N)c(-c2ccccc2)c2ccc([N+](=O)[O-])cc2c1=O,-10,-0.1,-9,6941,12,7,-4
O=C(CSc1nnc(CNc2ccccc2)o1)N1CCN(C(=O)c2ccco2)CC1,2,3.5,-15,8118,2,1,0
Cc1ccc(C)c(NC(=O)COC(=O)c2ccc3c(c2)OCCO3)c1,1,-1.1,1,6254,-4,1,nt
CC(=O)C1=NN(c2ccccc2)C(c2cccs2)N1c1ccc(N(C)C)cc1 (stereo not given),12,4.2,-9,10918,1,2,12
Cc1cc(C)n(-c2nnc(C)n2/N=C/c2cc(Br)ccc2OCc2ccccc2)n1,nt,nt,-11,3349,nt,nt,-6
CCN(C(=O)/C=C/c1ccc2c(c1)OCO2)c1ccccc1,-8,9.7,-19,2204,2,11,-6
CCC(C(=O)NC1CCCC1)n1c(SCc2cccc(C)c2)nc2ccncc21 (stereo not given),7,-7.7,-24,4236,-2,6,6
CC(=O)c1cnc2nc(SCc3ccccc3)nn2c1C,4,7.0,-63,3793,0,3,3
N/C(Cn1cncn1)=N\OC(=O)c1ccc(Cl)cc1,2,1.2,-6,2527,18,-1,-6
Cc1cccc(NC(=S)NNC(=O)c2cc3c(s2)CCC(C)C3)c1C (stereo not given),3,0.2,0,1955,11,6,3
CCC1(CC)NC(=O)N(CC(=O)NC(=O)NCc2ccccc2)C1=O,5,1.0,-10,3714,5,-9,-8
O=C(NCc1ccc2c(c1)OCO2)C1CCCN(S(=O)(=O)c2cccc3nonc23)C1 (stereo not given),-1,-1.9,-10,2517,nt,nt,0
O=C(COc1ccc(Br)cc1Cl)NC1CCCCC1,5,5.1,-72,2564,18,6,-9
CN(C)C(=S)Nc1nc2ccccc2s1,3,6.9,-83,4115,13,11,13
O=C(CSc1nc2ccc(Cl)cc2[nH]1)c1c[nH]c2ccccc12,-6,-0.4,-19,4634,-7,0,nt
CCCc1cc(=O)[nH]c2nnc(SCC(=O)N3CC(C)OC(C)C3)n12 (stereo not given),7,1.7,-15,5103,-4,8,-2
